VDR inhibitor: Inhibitors of the vitamin D receptor (VDR): qHTS. Potency, µM, without a hit: max response, negative = inhibition, hits mostly inhibitors. VDR-SRC2-3 peptide fluorescence polarization, 2 h. hit rate 0.93% among 400,000. Vitamin D3 receptor (Homo sapiens), P11473; active means well fitted inhibition curve with a large enough effect; inconclusive means small, poorly fitted or top-dose-only effect, or another doubt; inactive means no such curve, though single readings can be large or run the other way; further: series mostly up to about 120 µM
Target sequence (P11473 whole entry, looked up): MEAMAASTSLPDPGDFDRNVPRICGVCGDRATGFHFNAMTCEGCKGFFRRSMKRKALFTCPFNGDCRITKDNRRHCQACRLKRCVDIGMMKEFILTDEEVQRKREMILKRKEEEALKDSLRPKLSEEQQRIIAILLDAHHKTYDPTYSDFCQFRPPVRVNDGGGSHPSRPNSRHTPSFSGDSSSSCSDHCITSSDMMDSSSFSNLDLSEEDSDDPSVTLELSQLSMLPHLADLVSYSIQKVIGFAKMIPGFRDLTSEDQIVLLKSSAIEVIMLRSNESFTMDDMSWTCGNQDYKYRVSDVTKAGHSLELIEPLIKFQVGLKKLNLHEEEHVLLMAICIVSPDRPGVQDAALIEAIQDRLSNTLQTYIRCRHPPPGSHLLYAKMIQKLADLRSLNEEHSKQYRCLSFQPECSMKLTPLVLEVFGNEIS
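Signal is fluorescence polarization, reporting how far test compounds block the interaction of VDR with the SRC2-3 coregulator peptide after a 2 h room-temperature incubation.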
Numbers without * were called inactive; ? = inconclusive; & = joins results of further samples. On the % scale 0 is the no-effect control and ±100 the full control effect; potency means the concentration at half of the fitted maximal effect. A portion of the library; rates above refer to the full screens.

structure	VDR inhibitor
CCN(CC(=O)Nc1ccccc1OC)C(=O)CSCC(=O)Nc1cccc(C)c1	7%
O=C(NCC1CCCO1)c1ccc2c(=O)n(CC3CCCO3)c(SCC(=O)N3CCCC3)nc2c1 (stereo not drawn)	-6%
CCOC(=O)N1CCN(C(=O)CN(C2CCCCC2)S(=O)(=O)c2ccc(Cl)cc2)CC1	4%
C=CCC[C@H](Cc1ccc(F)cc1)C(=O)OC[C@H](Cc1c[nH]c2ccccc12)NC(=O)[C@@H](CC=C)CC(=O)NCCO	-10%
CCN(C[C@H]1N[C@@](CC)(C(=O)OC)[C@H]2C(=O)N(Cc3ccccc3)C(=O)[C@@H]12)C(=O)Nc1ccc(OC)cc1	6%
COc1ccc(NS(=O)(=O)c2c(C)nc3scc(C)n3c2=O)cc1	-10%
CC1Cc2cc(/C=C3/SC(=S)N(C)C3=O)ccc2O1 (stereo not drawn)	-21%
S=c1[nH]nc(-c2ccccc2Cl)n1CC1CCCO1 (stereo not drawn)	3%
CCOc1ccc(NC(=O)CCN2CCN(c3ccccc3)CC2)cc1	2%
NC(=O)CC(NC(=O)c1ccc(Br)cc1)c1ccc(N2CCN(c3ccccn3)CC2)c([N+](=O)[O-])c1 (stereo not drawn)	-13%
Nc1nnn(CC(=O)N/N=C/c2ccco2)n1	-23%
CCOC(=O)c1ccc(NC(=O)CSc2nnc(C)n2-c2ccccc2)cc1	10%
COc1ccc(NC(=O)NCCN2CCN(c3cc(OC)ccc3OC)CC2)cc1	-1%
Cc1cc(-c2ccccc2)nc(Nc2nc3c(C)cccc3c(=O)[nH]2)n1	-14%
Nc1nc2c(cnn2CCc2ccccc2)c2nc(-c3ccco3)nn12	-1%
Cc1ccc(-n2ncc3c2CCCC3NC(=O)CCN2CCCC2=O)cc1C (stereo not drawn)	14%
O=C1CCN(C(=O)Nc2ccccc2)N1	2%
CCc1nn(C)c(N)c1C	20%
O=[N+]([O-])c1ccccc1OCCNCc1ccccc1	-3%
COC(=O)C1=C(C)NC(C)=C(C(=O)OC)C1c1cc2ccc(C)cc2[nH]c1=O	12%
COc1cc(C(=O)OCc2cccc(OC)c2OC)ccc1OCC(=O)N1CCOCC1	-6%
Cc1onc(-c2c(Cl)cccc2Cl)c1C(=O)N=S(C)(=O)c1ccccc1 (stereo not drawn)	12%
COc1ccc(CNCC(O)COc2cccc3c2OC(C)(C)C3)cc1 (stereo not drawn)	-1%
CC1CCCCN1S(=O)(=O)c1coc(C(N)=O)c1 (stereo not drawn)	-16%
CCOc1ccc(/C=C(\C#N)C(=O)c2c(C)[nH]c3ccccc23)cc1OC	-25%
c1ccc(CC2CCN(c3nc4ccccc4n4cnnc34)CC2)cc1	-7%
CN(C(=O)COC(=O)c1cccnc1Cl)C1CCCCC1	-13%
Cc1nnc(N2CCCC(C(=O)Nc3cc(F)ccc3F)C2)c2nn(-c3ccccc3)c(C)c12 (stereo not drawn)	-10%&4%
CCOc1ccc(C(=O)N[C@H](C(=O)Nc2cccc(S(=O)(=O)N3CCOCC3)c2)C(C)C)cc1	-11%
CN(C)/C=C(\C#N)S(=O)(=O)c1ccccc1	-3%
O=C(CNCC1CCCO1)N1CCN(S(=O)(=O)c2ccc3ccccc3c2)CC1 (stereo not drawn)	10%
COc1ccc(-c2[nH]ncc2-c2csc(C)n2)c(O)c1	-18%
Cc1ccc(CNC(=O)c2cccc3c2C(=O)c2ccc(N4CCC(C)CC4)cc2S3(=O)=O)cc1	-6%
Cc1ccc(-c2onc(C)c2C)cc1S(=O)(=O)Nc1cccc(Cl)c1C	2%
CC[C@]1(O)C[C@@H]2CN(CCc3c([nH]c4ccccc34)[C@](C(=O)OC)(c3cc4c(cc3OC)N(C)[C@H]3[C@](O)(C(=O)OC)[C@@H](C(=O)OC)[C@@]5(CC)C=CCN6CC[C@@]43[C@@H]65)C2)C1	-30%
Cc1ccc(CNC(=O)Cn2cc(C(=O)c3ccc(F)cc3)c(=O)c3ccc(C)nc32)cc1	-8%
COc1ccc(CNC(=O)C(=O)NCCCn2ccnc2)cc1	19%
Cc1cc(C)nc(SCCN2CCOCC2)n1	20%
Cn1c(=O)c2c(nc(Oc3ccccc3)n2C)n(C)c1=O	2%
O=[N+]([O-])c1cccnc1N1CCC(c2cc(-c3ccc(Cl)cc3)n[nH]2)CC1	2%
CCc1ccccc1NC(=O)c1sc2nc3n(c(=O)c2c1C)CCC3	23%
CCc1ccc(/C=C2/C(=O)N(C)C(=S)N2CC(=O)OC)s1	-28%
O=C(CCN1C(=O)c2cccc3cccc(c23)C1=O)Nc1ccon1	-19%
O=C(Nc1ccc(S(=O)(=O)N2CCOCC2)cc1)c1cc([N+](=O)[O-])ccc1Cl	-12%
Cc1nc(C)c(C(=O)NNC(=O)Nc2ccc(Cl)cc2)s1	-6%
Cc1ccc(OCc2nnc(SCC(=O)Nc3cc(C)on3)n2C)cc1	12%
N[C@H](C(=O)O)c1ccc(O)c(C(=O)O)c1	11%&17%
Nn1c(Cc2ccccc2F)nnc1SCn1nnc2ccccc2c1=O	-7%
Cc1cccc(NC(=O)Cc2csc(COc3cccc(C)c3)n2)c1	9%
O=C(NNC(=S)Nc1ccc(Cl)cc1Cl)c1cccnc1	-11%
CCOC(=O)N1CCC(N2CCN(S(=O)(=O)c3ccc(Cl)cc3)CC2)CC1	0%
O=C(CNC(=O)c1cccs1)N/N=C/c1cccc(Br)c1	-8%
CCc1nnc(NC(=O)C2CCCN2S(=O)(=O)c2ccc(C)cc2)s1 (stereo not drawn)	1%
O=C(NCCS(=O)(=O)N1CCN(c2cccc(Cl)c2)CC1)C(c1ccccc1)c1ccccc1	8%
COc1ccc(NC(=O)N2CCN(S(C)(=O)=O)CC2)c(OC)c1	17%
Cc1nc2c3ccccc3nc(NNC(=O)CCC(=O)N3CCCC(C)C3)n2n1 (stereo not drawn)	1%

Later entries:
structure	VDR inhibitor
O=C(CSc1ncc(-c2ccc(F)cc2)[nH]1)NCc1ccco1	-7%
Cc1nn2c(N)c(-c3ccccc3)cnc2c1-c1ccccc1	-19%
O=C(NCC(=O)N1CCCCCC1)c1ccc(Br)cc1	-9%
CC1CC1C(=O)OCC(=O)c1c(N)n(C)c(=O)n(C)c1=O (stereo not drawn)	-6%
CCOc1ccccc1NC(=O)c1c(NCc2sccc2C)sc2c1CCCCC2	9%
CC1CCN(S(=O)(=O)c2ccc3c(c2)n(C)c(=O)n3C)CC1	10%
COC(=O)C1=C(C)NC(=O)/C1=C\c1cc(C)n(-c2cccc(C)c2)c1C	1%
CCN(CC)S(=O)(=O)c1ccc(N2CCOCC2)c(NC(=O)COc2ccccc2C)c1	-9%
CCN([C@H](CO)CC(C)C)S(=O)(=O)c1ccccc1	-1%
CCS(=O)(=O)c1ccc(O)c(NC(=O)COc2ccc(OC)cc2)c1	1%
N#CC(C#N)=Cc1ccc(OCC(=O)N2CCOCC2)cc1	?
Cc1cc(=O)c2ccccc2s1	2%
CC1=C(C(=O)Nc2cccc(C(=O)NC3CCCC(C)C3C)c2)SCCO1 (stereo not drawn)	2%
COC(=O)c1c(NC(=O)COc2ccc(Cl)cc2C)sc2c1CCCCC2	?
COc1ccc(CN2CCN(C(C)C)C(CCO)C2)cc1Cn1cccn1 (stereo not drawn)	5%
O=C(Nc1c(C(=O)c2ccc(F)cc2)oc2ccccc12)c1cc(-c2ccccc2)on1	-4%
Cc1cccc(NC(=O)C2c3ccccc3C(=O)N3CCc4ccccc4C23)n1 (stereo not drawn)	2%
CCOC(=O)CN1C(=O)C(O)=C(C(C)=O)C1c1ccc([N+](=O)[O-])cc1 (stereo not drawn)	14%
O=C(CCc1nnc(-c2ccsc2)o1)NCc1ccccc1OC(F)(F)F	-2%
O=C1OC(=O)C2C3CCC(O3)C12 (stereo not drawn)	1%
O=c1cc(CO)occ1O	5%
O=C(O)C1CCCN1c1ncccc1[N+](=O)[O-] (stereo not drawn)	20%
Clc1ncccc1-c1nc2ccccc2n1Cc1ccccc1	5%
O=C(NCc1ccccc1)c1cccc(NC(=O)C2CCCCC2)c1	-13%
COc1ccccc1N1CCN(C(=O)CN2C(=O)c3ccccc3C2=O)CC1	-1%
COc1ccc(C(=O)n2nc(-c3ccc(Cl)cc3)nc2NCc2ccco2)cc1	14%
CCOc1nc(NC(=O)NS(=O)(=O)c2cccc(Cl)c2)nc(-c2ccccc2)n1	-15%
COc1ccc(NS(=O)(=O)c2ccc3nc(COc4cccc5ccccc45)[nH]c3c2)cc1	10%
O=C1NCC(O)=C1C=NC12CC3CC(CC(C3)C1)C2	-6%&-6%
COc1ccc(C2CCCN2CC(O)COc2ccccc2C(C)C)cc1 (stereo not drawn)	4%
CCOC(=O)CN(C(=O)CSc1nnc(CNc2ccc(C)cc2C)n1CC)c1ccccc1	-9%
Cc1cc(NC2CCCCC2)nc(NCc2ccccc2)n1	0%
CC(=O)c1ccc(Oc2ncnc(N)c2[N+](=O)[O-])cc1	15%
CN(C)S(=O)(=O)c1ccc(NC(=O)Cn2ccsc2=N)cc1	-14%
O=C1C(=O)N(C/C=C/c2ccccc2)c2ccccc21	?
COc1ccc(-c2noc(CCC(=O)N3CCN(c4ccccc4Cl)CC3)n2)cc1	-19%
COC(=O)C1=C(C)NC(=O)C1(NC(=O)c1cc(OC)c(OC)c(OC)c1)C(F)(F)F (stereo not drawn)	-2%
CCc1ccc(N2CCn3c2nc2c3c(=O)n(C/C=C/c3ccccc3)c(=O)n2C)cc1	0%
COc1ccc2oc(C(=O)N(C)Cc3ccc(OC(F)F)cc3)c(C)c2c1	-6%
CC1Sc2ccc(C(=O)NCc3cccc(C(F)(F)F)c3)cc2NC1=O (stereo not drawn)	24%
CC(=O)N[C@@H](Cc1c[nH]c2ccccc12)C(=O)NCc1ccccc1	-4%
N#CC1(NC(=O)COC(=O)c2nc(Cl)c(Cl)c(N)c2Cl)CCCCC1	-15%
CCCC(C)C(=O)Nc1nc(C)c(-c2csc(Nc3cc(OC)ccc3OC)n2)s1 (stereo not drawn)	-7%
C=CCOc1ccc(NC(=O)C2CC(=O)N(C(C)C)C2)cc1 (stereo not drawn)	-4%
COc1ccc(C(C)NC(=S)NCc2ccc(F)cc2)cc1 (stereo not drawn)	6%
CC1=C(C(=O)Nc2ccc(F)cc2)C(c2ccncc2)C2=C(CCCC2=O)N1 (stereo not drawn)	-5%
Cc1cc(C)n2nc(C(=O)N3CCCC(CNS(=O)(=O)c4cccs4)C3)cc2n1 (stereo not drawn)	-3%
COc1cc(CN2CCCC(N3CCN(c4ccc(F)cc4)CC3)C2)ccc1F (stereo not drawn)	0%

Overlap with the part before: 5 compounds, then new ones.
structure	VDR inhibitor
C=CCOc1ccc(NC(=O)C2CC(=O)N(C(C)C)C2)cc1 (stereo not drawn)	-4%
COc1ccc(C(C)NC(=S)NCc2ccc(F)cc2)cc1 (stereo not drawn)	6%
CC1=C(C(=O)Nc2ccc(F)cc2)C(c2ccncc2)C2=C(CCCC2=O)N1 (stereo not drawn)	-5%
Cc1cc(C)n2nc(C(=O)N3CCCC(CNS(=O)(=O)c4cccs4)C3)cc2n1 (stereo not drawn)	-3%
COc1cc(CN2CCCC(N3CCN(c4ccc(F)cc4)CC3)C2)ccc1F (stereo not drawn)	0%
O=C1c2cccc3cccc(c23)C(=O)N1CCc1ccccc1	-5%
COc1ccc(CNC(=O)CN2CCN(C(c3ccccc3)c3ccccc3)CC2)cc1	0%
O=C(COc1ccccc1F)N/N=C1\CCCc2ccccc21	-17%
O=C(NCCc1ccccc1)c1cccc(S(=O)(=O)N2CCCCC2)c1	4%
CCN1CCN(CCCNC(=O)Cn2nc(C)n3c(cc4cc(C)ccc43)c2=O)CC1	1%
O=C(COC(=O)/C=C/c1ccccc1)NCCC1=CCCCC1	-13%
C=CCn1c(SCC(=O)NCC2CCCO2)nnc1-c1ccccc1 (stereo not drawn)	14%
Nc1ncn(-c2ncc(C(F)(F)F)cc2Cl)n1	5%
COC(=O)c1ccc2c(c1)NC(=O)C(N1CCOCC1)S2 (stereo not drawn)	-8%
CC(C)C[C@@H](CC(=O)N[C@H](CC(=O)N[C@@H]1CCCC[C@H]1C(=O)N[C@H](CC(=O)N[C@@H](CCC(=O)O)CC(=O)O)CC(C)C)C(C)C)NC(=O)[C@@H]1CCCC[C@H]1N	-5%
O=C(CN1C(=O)CCc2cc(S(=O)(=O)N3CCOCC3)ccc21)Nc1cccc(Cl)c1	5%
Cc1ccc(OCC(=O)N/N=C\c2ccncc2)c(C)c1	-5%
Cc1nnc(NC(=O)c2cc3n(n2)C(C(F)(F)F)CC(C2CC2)N3)s1 (stereo not drawn)	-8%
COc1ccc(S(=O)(=O)N(CC(=O)NC2CCCCC2)c2ccc(F)cc2)cc1	-16%
O=C(CSc1cn(CCNC(=O)c2ccccc2F)c2ccccc12)NCC1CCCO1 (stereo not drawn)	4%

3 of the entries above in order of their number in VDR inhibitor, highest first:
structure	VDR inhibitor
O=C(CSc1cn(CCNC(=O)c2ccccc2F)c2ccccc12)NCC1CCCO1 (stereo not drawn)	4%
Cc1ccc(OCC(=O)N/N=C\c2ccncc2)c(C)c1	-5%
COC(=O)c1ccc2c(c1)NC(=O)C(N1CCOCC1)S2 (stereo not drawn)	-8%
